Source: PubChem
AF4-AF9 inh: blocks AF4 peptide binding to human AF9. P42568. AlphaScreen, biotin-AF4 peptide binding to FLAG-AF9. inhibition, % at 10 µM. actives 0.47% (n = 350,000). AID 651704;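 active means every replicate reaching a set inhibition limit, whatever the replicate mean, cut at about 25% in these data; inconclusive means mean inhibition reaches that limit but some replicates miss it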;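 further: 0% = plate neutral control median and 100% = total signal loss; the record names both 10 and 1 µM as test concentration; the first replicate is given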
Target sequence (P42568 whole entry, looked up): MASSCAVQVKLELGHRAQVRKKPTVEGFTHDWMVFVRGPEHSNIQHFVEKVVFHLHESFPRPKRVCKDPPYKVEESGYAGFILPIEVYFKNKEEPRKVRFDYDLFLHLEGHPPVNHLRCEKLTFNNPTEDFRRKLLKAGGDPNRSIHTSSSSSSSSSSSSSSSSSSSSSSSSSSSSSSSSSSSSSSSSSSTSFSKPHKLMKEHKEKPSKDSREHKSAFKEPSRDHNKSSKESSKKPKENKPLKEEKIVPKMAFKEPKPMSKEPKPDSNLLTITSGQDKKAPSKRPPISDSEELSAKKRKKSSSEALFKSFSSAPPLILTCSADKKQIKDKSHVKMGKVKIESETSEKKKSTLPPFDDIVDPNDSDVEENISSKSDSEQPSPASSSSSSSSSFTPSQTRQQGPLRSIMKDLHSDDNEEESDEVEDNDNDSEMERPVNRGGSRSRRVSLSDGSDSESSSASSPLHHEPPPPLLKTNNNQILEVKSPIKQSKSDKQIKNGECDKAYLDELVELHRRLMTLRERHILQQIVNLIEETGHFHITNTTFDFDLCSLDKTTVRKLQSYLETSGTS
A1 inh: inhibitors of the anti-apoptotic protein A1, read as caspase activation | AID 2462 | MEF A1-2A-BIM cells, Caspase-Glo 3/7 luminescence, 3 h; percent of clofoctol response, vehicle zero | actives 0.066% (n = 330,000) | caspase activation, % (test concentration not listed);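 active means over half of replicate activation scores above 10%, or exactly half above 10 with the replicate mean above 10; inconclusive means replicate mean below 10 yet half the replicates above 10; inactive means over half of replicates below 10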;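 further: wells of about 30 µL received 50 nL stock; many hits fall short of the cut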
Beta apoptosis: beta cell apoptosis inhibition | protection from apoptosis, % (no concentration beside the values) | INS-1E cytokine-induced death, ATP luminescence, 48 h; percent of positive-control rescue, neutral wells zero | actives 0.8% (n = 300,000);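 active means all replicates at 75% or more, or half of them and the mean; inconclusive means half reach 75% but not the mean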;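 further: 0% = cytokine-treated negative control wells and 100% = positive control rescue; higher means more ATP so stronger rescue from cytokine killing; wells of about 40 µL received 100 nL stock; the first replicate is given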
RanGTP-Impb inh: inhibitors of RanGTP-importin-beta interaction, primary screen, biochemical, FRET, CFP-Ran, YFP-importin-beta, homogeneous; cell-free CFP-Ran/YFP-importin-beta FRET ratio; inhibition, % (test concentration not listed); actives 1.1% (n = 300,000); AID 2216;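 active means most replicates above 15%; inconclusive means exactly half above 15%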;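 further: 0% = DMSO wells and 100% = Ran loaded with GDP instead of GTP; wells of about 40 µL received 100 nL stock; the first replicate is given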
LANA-H2B inh: blocks KSHV LANA binding to histone H2A/H2B; Q9QR71; actives 0.6% (n = 320,000); cell-free LANA-H2A/H2B peptide, fluorescence polarization; inhibition, % (concentration not given with the values); in the data active means inhibition mostly above about 10%, no sharp cut-off; inactive means mostly below about 6.7%;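 further: stock transfer was 7.5 nL into about 10 µL; 0% = median of vehicle wells and 100% = median of positive control wells; one replicate is shown; the record names a cut of 25% in any replicate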
Vif TR-FRET: inhibitors of Vif binding to APOBEC3G peptide, primary screen, biochemical, TR-FRET, GST-Vif 1-94, biotin-A3G peptide, dose response retest (AID 1117319). actives 0.57% (n = 260,000). TR-FRET GST-Vif / biotin-A3G peptide binding; higher % means a stronger effect; test concentration not given here; strong numbers were not always called active. inhibition, %, or IC50 in µM where a hit was titrated;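 active means above the screen mean plus three standard deviations and confirmed in dose response; inconclusive means results disagree or hit not tested in dose response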;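 further: Vif residues 1-94 fused to GST binding biotinylated APOBEC3G peptide 110-148; 0% = full assay without inhibitor and 100% = GST in place of GST-Vif; retest series ran down from 100 µM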
Calb FLC: C. albicans growth modulation with fluconazole | AID 1979 | C. albicans CaCi-2 (fluconazole-resistant clinical isolate) + fluconazole, Alamar Blue growth, 48 h | growth inhibition, % (test concentration not listed) | actives 0.57% (n = 300,000);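 active means most replicates above 75%; inconclusive means exactly half above 75%; inactive means most below 75%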;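 further: all wells also contain fluconazole at 8 µg/ml as a sub-toxic cotreatment; 0% = median of DMSO wells and 100% = median of geldanamycin control wells; wells of about 8 µL received 7.5 nL stock; the first replicate is given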
T cruzi repl: blocks replication of Trypanosoma cruzi | T. cruzi beta-gal in NIH3T3, luminescence, 90 h | inhibition, % (concentration not given with the values) | actives 1.4% (n = 300,000) | AID 1885;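 active means mean inhibition across valid replicates above about 55%, limit read from the data; inconclusive means mean below that limit but half or more replicates reach it; inactive means mean below it, under half of replicates reach it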;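 further: signal also drops with host cell toxicity which is not excluded here; 0% = plate median of DMSO wells and 100% = zero luminescence signal; higher percent means less beta-gal luminescence so fewer parasites; stock transfer was 50 nL into about 50 µL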
* = called active by the depositor; ? = inconclusive; nt = not tested or not shown; & = joins results of further samples.

SMILES	AF4-AF9 inh	A1 inh	Beta apoptosis	RanGTP-Impb inh	LANA-H2B inh	Vif TR-FRET	Calb FLC	T cruzi repl
COc1ccc(NS(=O)(=O)c2ccc3c(c2)N(C(C)=O)CCS3)cc1	1.1	0.7	1	2.1	-0.6	-19%	19	8
CN(CC(=O)Nc1ccc(N2CCOCC2)cc1)C(=O)c1cc(F)c(F)cc1Cl	0.6	0.1	-3	2.4	4.1	2%	-7	-6
COc1cc2c(cc1OC)C(C(=O)N1CCOCC1)C(c1cccs1)N(C)C2=O (stereo not drawn)	nt	?	-6	1.4	-1.5	3%	12	-10
Cc1ccc(N(C(=O)Cc2cccs2)C(C(=O)NC2CCCCC2)c2ccccn2)cc1C (stereo not drawn)	nt	0.8	4	0.4	-5.6	-6%	-6	7
Oc1ccc(N2CCN(C(c3ccncc3)c3nnnn3C3CCCC3)CC2)cc1 (stereo not drawn)	nt	0.5	4	0.4	-8.6	?	-33	10
O=C(COc1ccc2c3c(c(=O)oc2c1)CCC3)NCC1CCC(C(=O)O)CC1 (stereo not drawn)	-1.9	-0.4	-1	0.6	0.8	-1%	nt	-15
COc1ccccc1NC(=O)COC(=O)C1CC1	-5.0	0.0	-4	-0.5	-4.4	-8%	11	-14
N#Cc1c(SCC(=O)OCc2ccccc2)nsc1SCC(=O)OCc1ccccc1	nt	-0.1	-13	-0.8	-0.2	0%	14	-18
Cc1ccc(-c2csc(Nc3ccccn3)n2)cc1	1.9	-6.6	7	-1.5	-1.5	0%	-9	32
COc1ccc(NC(=O)N2Cc3ccccc3CC2C(=O)NC(C)(C)C)cc1 (stereo not drawn)	nt	0.3	-5	2.7	-2.2	15%	9	-5
CCOc1ccccc1NS(=O)(=O)c1cc2c3c(c1)CC(=O)N3CCC2	1.6	-1.4	-4	-1.2	-1.5	nt	0	-10
CC(=O)O[C@H]1C(=O)[C@@]2(C)[C@H]([C@H](OC(=O)c3ccccc3)[C@]3(O)C[C@H](OC(=O)[C@H](O)C(NC(=O)c4ccccc4)c4ccccc4)C(C)=C1C3(C)C)[C@]1(OC(C)=O)CO[C@@H]1C[C@@H]2O (stereo partly drawn)	4.3	1.7	9	4.0	-3.6	5%	-4	52
Cc1ccc(C(c2nnnn2Cc2cccs2)N2CCN(Cc3ccc4c(c3)OCO4)CC2)cc1 (stereo not drawn)	nt	1.1	nt	0.9	1.3	9%	-1	12
CCCc1nnc(SCC(=O)N2CCOCC2)n1CCCOC	nt	-0.2	-3	-4.6	1.0	2%	-3	-14
O=C(CSc1nnc(NC(=O)C2CC2)s1)Nc1ccc2c(c1)OCCO2	1.9	-0.2	3	1.8	2.1	0%	-2	-16
COc1cccc(OCc2cc(C(=O)N3CCN(C(=O)c4ccco4)CC3)no2)c1	-1.3	-0.1	-2	-3.4	-0.8	nt	-5	9
CCOC(=O)CSc1nnc(NC(=O)CCc2ccccc2)s1	-0.5	0.0	-2	-0.6	2.1	-2%	4	-12
COc1cccc2[nH]c3c(N4CCC(C(N)=O)CC4)ncnc3c12	nt	0.7	3	2.2	-2.0	4%	10	-1
COc1ccc(OC2C(=O)N(CCc3ccc(OC)c(OC)c3)C2c2ccc3c(c2)OCO3)cc1 (stereo not drawn)	nt	-1.1	1	2.2	1.2	4%	-3	6
O=C(Nc1nnc(C2CCCCC2)s1)C1CC(=O)N(c2ccccc2)C1 (stereo not drawn)	-5.5	1.5	-3	4.5	3.2	nt	2	8
COc1ccc(NC(=O)/C=C/c2ccccc2)cn1	nt	-4.2	-4	-3.7	3.5	1%	-12	4
C=CCN1C(=O)c2cccc3c(Br)ccc(c23)C1=O	0.4	0.1	0	-3.2	-2.6	-56%	14	-14
COc1ccc(NC(C)C(=O)Nc2cccc(S(=O)(=O)N3CCOCC3)c2)cc1OC (stereo not drawn)	8.3	-1.2	-3	nt	-1.9	nt	nt	nt
CNc1nnc(-c2ccc(N(C)C)cc2)s1	nt	0.1	4	nt	-16	12%	nt	nt
COc1cc(-c2nc3ccc(C)cn3c2NCc2ccccc2)ccc1-c1cccc(Cl)c1	7.5	-1.5	102*	nt	0.1	nt	nt	nt
(cont.)
SMILES	AF4-AF9 inh	A1 inh	Beta apoptosis	RanGTP-Impb inh	LANA-H2B inh	Vif TR-FRET	Calb FLC	T cruzi repl
CN1/C(=C\C(=O)COC(=O)c2ccc(O)cc2)C(C)(C)c2ccccc21	-27	-1.3	16	3.7	2.0	16%	7	33
Cc1ccc(S(=O)(=O)N2CCN(S(=O)(=O)N3CCC(C)CC3)CC2)c(C)c1	-8.1	0.2	-3	-0.3	4.1	1%	7	19
COc1cc(C2CC(=O)Nc3c2c(=O)nc2c(C)cccn32)cc(OC)c1OC (stereo not drawn)	-3.1	1.1	-6	-1.1	1.1	4%	-16	3
O=C(CCS(=O)(=O)c1ccc2c(c1)NC(=O)CS2)NCc1ccccc1Cl	nt	-1.1	-6	5.0	-2.7	nt	-1	8
Cc1ccc2cc(C#N)c(SCC(=O)N3CCCC3)nc2c1	-1.0	1.1	11	0.9	-7.7	6%	-1	42
Cc1ccc(C(=O)N/C(=C\c2ccco2)C(=O)N2CCCCC2)cc1	2.1	-0.5	-3	-2.6	-0.9	nt	-6	-2
COc1ccc(C2SCC(=O)N2c2ccc(OC)cc2)cc1 (stereo not drawn)	-0.2	-0.5	-5	2.3	-0.4	4%	-1	-20
NC(=O)C1CCN(C(=O)c2ccccc2CCc2ccccc2)CC1	-3.7	0.5	-11	-4.7	-2.1	-9%	17	3
O=C(/C=C/c1cccnc1)c1ccc(NC(=O)c2cccc(Br)c2)cc1	nt	0.1	9	3.6	-8.4	-7%	0	38
CCOC(CNC(=O)C1CCN(S(=O)(=O)c2ccc3nc4c(c(C(=O)O)c3c2)CCCCC4)CC1)OCC	0.7	-2.7	-4	-2.8	0.4	?	-18	-19
COc1ccccc1NS(=O)(=O)c1cccc(C(=O)OCC(=O)Nc2cc(C)on2)c1	nt	0.5	-8	2.1	-1.0	-13%	1	2
O=C(N/N=C/c1ccc2ncccc2c1)c1cc(-c2cccs2)nc2ccccc12	-2.0	0.9	7	-5.5	-0.1	nt	-3	38
Cc1ccc(NC(=S)NC2CCCC2)cc1C	nt	-0.7	nt	-4.4	1.4	nt	3	-17
CC1CCN(CCOCCOc2ccc(Cl)cc2Br)CC1	11	0.3	10	-1.0	-2.7	3%	14	64*
Cc1ccc(S(=O)(=O)N(C)C)cc1NC(=O)CCc1ccccc1	-1.3	-0.3	-4	23	1.9	12%	11	8
O=C(NNc1cc(Cl)cc(Cl)c1)C1CCC1	-0.7	-0.7	2	7.0	1.4	-6%	5	-1
CC1(C)C=Cc2cc3ccc(=O)oc3cc2O1	1.6	-0.2	nt	4.5	-1.5	nt	6	5
Cc1cccc(N2CCN(Cc3nc(-c4cccc(Oc5ccccc5)c4)oc3C)CC2)n1	nt	-0.4	-4	?	1.1	3%	12	15
C=CCn1c(SCCN2C(=O)c3ccccc3C2=O)nc2scc(-c3ccccc3)c2c1=O	nt	-0.5	1	-0.9	2.3	-273%	-21	19
COc1ccc(CN(C)CC(=O)Nc2ccccc2C(=O)NC2CC2)cc1	-0.1	0.3	-4	nt	7.8	7%	nt	nt
CS(=O)(=O)N1N=C(c2ccccc2)CC1c1ccc2nccnc2c1 (stereo not drawn)	nt	-0.6	-3	1.6	0.8	-421%	46	-30
O=S(=O)(c1ccc2ccccc2c1)N1CCCCC1	-3.7	-0.8	-4	1.5	3.1	0%	-39	-14
COc1ccc(/C=N/NC(=O)C(=O)N2CCN(c3ccccc3OC)CC2)cc1	nt	1.1	-1	-4.7	0.3	1%	-8	-15
O=C(O)C1C2C=CC(C2)C1C(=O)NCCCc1ccccc1 (stereo not drawn)	-5.1	-0.3	-5	-0.8	0.5	-5%	-6	-18
Cc1cc(C)cc(NC(=O)C(Nc2ccccc2)c2ccccc2)c1 (stereo not drawn)	1.2	-0.5	-1	-3.8	-0.4	0%	-37	6
Going on with the list:
SMILES	AF4-AF9 inh	A1 inh	Beta apoptosis	RanGTP-Impb inh	LANA-H2B inh	Vif TR-FRET	Calb FLC	T cruzi repl
CCOC(=O)c1c(NC(=O)C(C)Sc2c[nH]c3ccccc23)sc2c1CCC2 (stereo not drawn)	1.7	0.5	0	1.6	0.0	4%	2	25
Cc1ccc(NC(=S)NCC23C=CC(O2)C2C(=O)N(c4ccc(C)cc4)C(=O)C23)cc1 (stereo not drawn)	3.3	0.1	-13	-2.8	0.2	5%	-11	-5
CCC(c1nnnn1CCc1ccccc1)N(Cc1ccco1)Cc1cc2c(C)ccc(C)c2[nH]c1=O (stereo not drawn)	nt	2.2	13	-4.3	1.9	-1%&0%	29	55*
O=C(Nc1ccccc1Cl)c1cc[n+]([O-])cc1	-8.7	0.3	-3	4.4	3.4	-8%	-2	-1
CCOC(=O)c1csc(NC(=O)C2=COCCO2)n1	-1.6	-0.6	-3	-3.0	-3.1	nt	2	-11
COc1ccc(CN=C(Nc2ccccc2)SC2CC(=O)NC2=O)cc1 (stereo not drawn)	-5.0	0.9	0	1.6	-1.8	27%	-3	12
COC(=O)C1=C(C)N(Cc2ccccc2)C(=NCc2ccc(OC)cc2)N[C@H]1c1ccccc1	14	-1.5	4	nt	-1.5	nt	nt	nt
CCC(CC)C(=O)N1CCN(c2cccc(C)c2C)CC1	nt	0.4	0	2.8	-0.3	4%	-9	-11
Cc1cccc(NC(=O)C2CCN(S(=O)(=O)c3cccc4nonc34)CC2)c1	3.3	0.8	-5	2.9	-6.9	nt	-2	7
COc1cccc(NC(=O)CN2C(=O)NC(C)(c3ccc(C)cc3)C2=O)c1 (stereo not drawn)	1.9	0.5	-5	-2.8	-2.9	3%	1	-6
CC(C)N(C(=O)c1sc2cc([N+](=O)[O-])ccc2c1Cl)C(C)C	nt	0.7	5	0.7	2.2	-5%	18	8
CCS(=O)(=O)c1ccc(-c2csc(-c3ccc(Cl)cc3)n2)c(Cl)c1Cl	nt	-1.2	7	-0.8	0.0	3%	9	12
Cn1c(SCC(=O)OC2CCCCC2)nnc1-c1ccc(S(=O)(=O)N2CCCC2)cc1	nt	0.8	-12	-1.4	5.6	16%	1	4
Cc1cc(CNC(=O)Nc2ccc3c(c2)OCO3)nn1C	nt	-0.5	-2	nt	-0.2	21%	5	4
CC1CCN(CCCNC(=O)CN2CCN(Cc3ccc(Cl)cc3)C2=O)CC1	-5.8	0.0	-7	1.5	-2.1	5%	17	13
COCCN1C(=O)N[C@@H](CCc2ccccc2)[C@H](C(C)=O)[C@H]1C	-0.7	-0.1	-1	-2.3	-1.8	15%	-12	-11
O/N=C\c1ccc(-c2ccccc2)o1	-0.9	-2.1	-4	2.1	-2.3	-1%	1	-4
CCN1CCN(C(=O)c2cc3cc(F)ccc3[nH]2)CC1	0.6	-1.3	-8	0.2	-5.9	-2%	0	26
Cc1ccc(C(=O)OC(C(=O)Nc2ccc(Cl)cc2C(F)(F)F)c2ccccc2)cc1 (stereo not drawn)	-3.5	1.0	-8	-4.5	-3.9	-8%	-14	4
CCCCNC(=O)C1(c2ccc(OC)cc2)CCOCC1	nt	0.8	0	-1.3	0.0	-4%	27	-1

Outcome played no part in choosing rows. Share with any hit: about 4.3%.
